Source: PubChem (several laboratories)
LANA-H2B inh – blocks KSHV LANA binding to histone H2A/H2B | Q9QR71 | cell-free LANA-H2A/H2B peptide, fluorescence polarization | inhibition, % (test concentration not listed) | 0.6% of 320,000 active; in the data active means inhibition mostly above about 10%, no sharp cut-off; inactive means mostly below about 6.7%;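 further: stock transfer was 7.5 nL into about 10 µL; 0% = median of vehicle wells and 100% = median of positive control wells; one replicate is shown; the record names a cut of 25% in any replicate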
B2AR ag – activates human beta-2 adrenergic receptor causing internalization; P07550; 0.43% of 340,000 active; response, % (test concentration not listed); Am2.2-beta2AR cells, FAP receptor internalization, flow cytometry; reference of the scale not given here;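 active means response above a set limit, near 3 SD of response in nonfluorescent compounds, cut at about 42% in these data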;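 further: stock transfer was 100 nL into about 11 µL; a reference agonist was the positive control; negative values mostly stem from fluorescent compounds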
Target sequence (P07550 whole entry, looked up): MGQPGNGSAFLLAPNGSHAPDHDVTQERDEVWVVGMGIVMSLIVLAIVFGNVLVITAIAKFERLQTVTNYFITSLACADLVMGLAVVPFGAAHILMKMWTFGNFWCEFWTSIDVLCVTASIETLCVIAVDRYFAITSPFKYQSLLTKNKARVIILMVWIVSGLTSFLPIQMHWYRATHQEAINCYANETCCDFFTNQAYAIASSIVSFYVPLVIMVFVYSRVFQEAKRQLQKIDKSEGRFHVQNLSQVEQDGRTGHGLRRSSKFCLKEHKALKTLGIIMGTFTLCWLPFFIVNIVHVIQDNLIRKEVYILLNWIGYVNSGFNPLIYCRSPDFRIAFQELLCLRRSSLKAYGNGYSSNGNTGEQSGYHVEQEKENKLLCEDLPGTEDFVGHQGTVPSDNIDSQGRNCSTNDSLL
UCH37 DUB inh – blocks the human deubiquitinase UCH37; AID 588478; 0.33% of 330,000 active; Q9Y5K5; purified proteasome/UCH37, Ub-AMC cleavage fluorescence; inhibition, % (test concentration not listed);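 active means mean of two replicates above 20%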;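 further: 0% = compound-free wells with enzyme and 100% = wells lacking proteasome; stock transfer was 100 nL into about 20 µL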
Target sequence (Q9Y5K5 whole entry, looked up): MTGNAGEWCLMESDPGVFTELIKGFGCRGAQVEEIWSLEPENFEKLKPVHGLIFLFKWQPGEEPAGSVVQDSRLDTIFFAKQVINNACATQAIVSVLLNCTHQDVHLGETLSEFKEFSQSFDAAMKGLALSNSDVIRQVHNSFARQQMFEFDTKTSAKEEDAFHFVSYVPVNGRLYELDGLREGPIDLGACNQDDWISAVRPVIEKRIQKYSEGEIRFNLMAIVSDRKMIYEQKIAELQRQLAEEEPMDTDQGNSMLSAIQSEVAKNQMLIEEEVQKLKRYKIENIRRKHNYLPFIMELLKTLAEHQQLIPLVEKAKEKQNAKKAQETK
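Test system – human UCH37 enzyme supplied as purified proteasome complex · Incubation – 30 min preincubation with enzyme, 25 min cleavage at room temperature · Detection – AMC fluorescence from Ub-AMC cleavage, excitation 355 nm, emission 460 nm · Benchmarks – no-proteasome wells (full inhibition) and compound-free wells (no inhibition)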
A1 inh – inhibitors of the anti-apoptotic protein A1, read as caspase activation; MEF A1-2A-BIM cells, Caspase-Glo 3/7 luminescence, 3 h; percent of clofoctol response, vehicle zero; 0.066% of 330,000 active; caspase activation, % (concentration not given with the values);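 active means over half of replicate activation scores above 10%, or exactly half above 10 with the replicate mean above 10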;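 further: wells of about 30 µL received 50 nL stock; many hits fall short of the cut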
Beta cell apopt – beta cell apoptosis inhibition; INS-1E cytokine-induced death, ATP luminescence, 48 h; percent of positive-control rescue, neutral wells zero; protection from apoptosis, % (concentration not given with the values); 0.8% of 300,000 active;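 active means all replicates at 75% or more, or half of them and the mean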;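 further: 0% = cytokine-treated negative control wells and 100% = positive control rescue; higher means more ATP so stronger rescue from cytokine killing; wells of about 40 µL received 100 nL stock; the first replicate is given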
T cruzi inh – blocks replication of Trypanosoma cruzi | T. cruzi beta-gal in NIH3T3, luminescence, 90 h | 1.4% of 300,000 active | inhibition, % (no concentration beside the values);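 active means mean inhibition across valid replicates above about 55%, limit read from the data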;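 further: signal also drops with host cell toxicity which is not excluded here; 0% = plate median of DMSO wells and 100% = zero luminescence signal; higher percent means less beta-gal luminescence so fewer parasites; stock transfer was 50 nL into about 50 µL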
Calb FLC – affects C. albicans growth with fluconazole | 0.57% of 300,000 active | growth inhibition, % (no concentration beside the values) | C. albicans CaCi-2 (fluconazole-resistant clinical isolate) + fluconazole, Alamar Blue growth, 48 h;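 active means most replicates above 75%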;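 further: all wells also contain fluconazole at 8 µg/ml as a sub-toxic cotreatment; 0% = median of DMSO wells and 100% = median of geldanamycin control wells; wells of about 8 µL received 7.5 nL stock; the first replicate is given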
RanGTP-Impb inh – disruptors of Ran-importin-beta complex formation – biochemical, FRET, CFP-Ran, YFP-importin-beta, homogeneous, primary screen; cell-free CFP-Ran/YFP-importin-beta FRET ratio; 1.1% of 300,000 active; AID 2216; inhibition, % (test concentration not listed);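 active means most replicates above 15%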;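 further: 0% = DMSO wells and 100% = Ran loaded with GDP instead of GTP; wells of about 40 µL received 100 nL stock; the first replicate is given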
* = called active by the depositor; . = no result given.

1: CSc1ccc(NC(=O)N2CCN(c3nc4ccccc4s3)CC2)cc1
2: O=C(CN1CCN(c2ccccc2O)CC1)NNC(=O)c1ccc(Cl)cc1
3: Clc1ccccc1COc1ccccc1-c1nnco1
4: Cc1cc(C)c(C#N)c(SCC(=O)C2CC2)n1
5: COc1cccc(CC(=O)OCC(=O)c2cc(OC)ccc2OC)c1
6: Cc1ccc(C(=O)COC(=O)c2ccccc2NC(=O)c2ccccc2)cc1[N+](=O)[O-]
7: Cc1ccc2oc(=O)n(CC(=O)OC(C)C)c2c1
8: CC(C)Nc1nc(NC(C)C)nc(N(C)C#N)n1
assay / entry	1	2	3	4	5	6	7	8
LANA-H2B inh	-3.5	5.4	-0.6	-2.5	5.4	2.6	-5.8	-1.7
B2AR ag	-4	-4	4	-8	-1	2	8	-11
UCH37 DUB inh	1.8	1.3	0.3	-11	-2.1	-0.2	3.1	2.8
A1 inh	-1.0	0.1	0.2	0.3	0.9	-0.3	0.5	0.1
Beta cell apopt	.	-5	-11	2	-6	14	-4	0
T cruzi inh	5	-19	-2	30	.	-15	-8	3
Calb FLC	-12	-2	1	0	.	7	-6	0
RanGTP-Impb inh	1.6	-1.2	0.9	-1.7	.	0.8	0.5	-2.6

Looked up above.
compound 4 in B2AR ag is entered as -8
compound 2 in LANA-H2B inh is entered as 5.4
compound 5 in Beta cell apopt is entered as -6

Continued:
9: CC1(C)O[C@@H]2C[C@H]3[C@@H]4C[C@H](F)C5=CC(=O)C=C[C@]5(C)[C@H]4[C@@H](O)C[C@]3(C)[C@]2(C(=O)CO)O1
10: COc1ccccc1NC(=O)CSc1nnc(CNC(=O)c2ccccc2F)o1
11: O=c1c2cccnc2nc2n1CCCCC2
12: CCOc1ccc(CCNC(=O)Cc2ccc(S(=O)(=O)N3CCOCC3)s2)cc1OCC
13: Cc1cc(N2CCC(C(N)=O)CC2)nc(-c2ccccc2)n1
14: O=C(N1CCOCC1)C(F)(F)C(=O)N1CCOCC1
15: COc1ccccc1NC(=O)CN(c1ccc(C)cc1)S(=O)(=O)c1c(C)n[nH]c1C
16: Cc1ccc(NC(=O)c2cc(S(=O)(=O)N3CCc4ccccc43)cn2C)cc1C
assay / entry	9	10	11	12	13	14	15	16
LANA-H2B inh	-4.8	3.3	10.0	-3.0	0.7	12	-6.2	1.8
B2AR ag	3	-5	-1	1	11	15	-5	5
UCH37 DUB inh	1.5	4.8	-1.0	-4.4	4.1	-0.2	0.3	2.8
A1 inh	0.7	0.3	0.4	-0.3	0.6	-0.8	-1.6	-0.3
Beta cell apopt	8	2	-2	.	-12	-2	7	-2
T cruzi inh	.	20	0	1	-13	-7	-5	5
Calb FLC	.	2	-7	4	0	-2	-17	-2
RanGTP-Impb inh	.	0.9	-2.2	-0.3	0.8	3.8	0.8	-4.4

17: N#CCCNC(=O)CCN1CCCCC1
18: Cc1ccc2oc(C(=O)N3CCCCCC3)c(C)c2c1
19: CCCCOc1ccc(C(=O)N/C(=C\c2ccc([N+](=O)[O-])cc2)C(=O)OCc2ccco2)cc1
20: C=CCn1c(SCC(=O)N2CCOCC2)nc2sc3c(c2c1=O)CCCC3
21: Cc1ccc(S(=O)(=O)N2CCC(C(=O)OC(C)C(=O)NC3CCCCC3C)CC2)cc1C (stereo unspecified)
22: N#Cc1c(SCC(N)=O)nsc1SCc1ccccc1Cl
23: CCC(=O)Nc1ccc(-c2nnc(SCC(=O)NCC3CCCO3)n2C)cc1 (stereo unspecified)
24: O=C1/C(=C/c2cccnc2)SC(=S)N1C1CCS(=O)(=O)C1 (stereo unspecified)
assay / entry	17	18	19	20	21	22	23	24
LANA-H2B inh	0.6	-7.6	-0.9	-4.3	-3.1	-2.4	2.7	1.9
B2AR ag	15	-14	2	-4	5	3	-10	-3
UCH37 DUB inh	3.6	4.9	3.1	3.0	-2.0	3.1	1.2	7.4
A1 inh	-0.1	-0.8	1.7	0.9	1.0	-0.2	-0.3	1.1
Beta cell apopt	-4	4	-5	9	-1	-9	-5	-18
T cruzi inh	-11	-4	-9	6	.	-45	-3	15
Calb FLC	2	0	.	.	.	-2	-2	65
RanGTP-Impb inh	1.6	1.7	.	-2.6	.	-0.6	-2.0	5.5

25: CCOc1cccc(N2C(=O)CC(NNC(=O)c3ccc(Br)o3)C2=O)c1 (stereo unspecified)
26: COc1cccc2c1C(=O)c1c(O)c3c(c(O)c1C2=O)C[C@@](O)(C(=O)CO)C[C@@H]3O[C@H]1C[C@H](N)[C@@H](O)[C@H](C)O1
27: Cc1cc(=O)oc2cc(OC(=O)c3ccccc3)ccc12
28: O=C(COC(=O)COc1ccccc1[N+](=O)[O-])Nc1ccc(S(=O)(=O)N2CCCCC2)cc1
29: CN(C(=O)c1ccc(Oc2ccc([N+](=O)[O-])cc2)cc1)C1CCCCC1
30: O=C(OCc1cn(-c2ccc(Cl)c(Cl)c2)nn1)c1ccccc1
31: O=c1[nH]c(=O)n(C2OC(CO)C(O)C2O)cc1Br (stereo unspecified)
32: CC(C)(CO)NC(=O)CCCOc1ccc(Cl)cc1Cl
assay / entry	25	26	27	28	29	30	31	32
LANA-H2B inh	-5.0	27*	-2.4	-1.0	2.0	0.2	5.8	9.1
B2AR ag	-3	-34	-2	-2	0	-2	-2	-4
UCH37 DUB inh	6.9	2.1	-229	4.2	2.4	2.4	-0.7	0.8
A1 inh	0.3	0.6	0.5	-0.1	-0.9	0.2	-0.3	0.4
Beta cell apopt	-2	39	-1	1	10	-8	-1	-7
T cruzi inh	-9	48	-14	-19	27	-3	-1	-5
Calb FLC	12	.	-3	-10	-1	7	-1	2
RanGTP-Impb inh	4.0	-25	-0.2	-3.8	0.3	-0.6	-1.2	.

33: COc1c(C(=O)Nc2ccccc2N2CCOCC2)cc2ccccc2c1Br
34: CCCC(=O)NC(Nc1c(C)n(C)n(-c2ccccc2)c1=O)C(Cl)(Cl)Cl (stereo unspecified)
35: Cc1c(Cl)cccc1-n1c(SCC(=O)NCc2ccccc2Cl)nnc1-c1ccncc1
36: O=c1[nH]c2ccc(S(=O)(=O)N3CCN(c4ccccc4)CC3)cc2[nH]c1=O
37: COc1ccccc1CNC(=O)c1ccc2c(=O)n3c(nc2c1)CCCCC3
38: COc1cccc2cc(C(=O)C3=C(O)C(=O)N(CCN(C)C)C3c3ccc(F)cc3)oc12 (stereo unspecified)
39: Cc1ccc(C(=O)N/C(=C/c2ccccc2)C(=O)NC(Cc2ccccc2)C(=O)O)cc1 (stereo unspecified)
40: CC(=O)C1C(c2ccccc2Cl)NC(=O)NC1(O)C(F)(F)F (stereo unspecified)
assay / entry	33	34	35	36	37	38	39	40
LANA-H2B inh	1.9	0.1	1.3	-9.5	6.7	4.2	-1.8	0.5
B2AR ag	-9	-2	6	10	6	-5	-1	7
UCH37 DUB inh	-5.4	3.8	3.1	2.2	2.5	8.9	2.2	2.2
A1 inh	-1.6	0.8	-0.3	-0.6	0.4	0.7	-0.7	1.6
Beta cell apopt	5	1	-1	-3	1	-4	4	.
T cruzi inh	25	-17	38	-18	-1	-4	-9	-10
Calb FLC	30	-17	-6	-2	7	6	-11	-1
RanGTP-Impb inh	-1.0	-0.8	-2.6	-1.4	-3.6	-0.5	4.1	2.6

Structures above with bromine (three):
25: CCOc1cccc(N2C(=O)CC(NNC(=O)c3ccc(Br)o3)C2=O)c1 (stereo unspecified)
31: O=c1[nH]c(=O)n(C2OC(CO)C(O)C2O)cc1Br (stereo unspecified)
33: COc1c(C(=O)Nc2ccccc2N2CCOCC2)cc2ccccc2c1Br
assay / entry	25	31	33
LANA-H2B inh	-5.0	5.8	1.9
B2AR ag	-3	-2	-9
UCH37 DUB inh	6.9	-0.7	-5.4
A1 inh	0.3	-0.3	-1.6
Beta cell apopt	-2	-1	5
T cruzi inh	-9	-1	25
Calb FLC	12	-1	30
RanGTP-Impb inh	4.0	-1.2	-1.0

(more compounds)
41: c1ccc2c(c1)Sc1ccccc1-n1cnnc1-2
42: O=c1cnnc(N/N=C/c2ccccn2)[nH]1
43: O=C(NCC1COc2ccccc2O1)c1cccc(S(=O)(=O)NCc2ccccc2)c1 (stereo unspecified)
44: O=C(CSc1nnc(-c2ccccc2)o1)c1ccc2c(c1)OCCO2
45: Cc1cc(C)c(N(CC(=O)NCc2ccccc2)C(=O)c2csnn2)c(C)c1
46: CC(=O)c1ccc(OCc2ccc(Oc3c(Cl)cccc3[N+](=O)[O-])cc2)cc1
47: CC(C(=O)O/N=C(\N)c1ccccn1)c1ccc([N+](=O)[O-])cc1 (stereo unspecified)
48: CN(C(=O)CSc1nnc(-c2ccco2)o1)C1CCCCC1
assay / entry	41	42	43	44	45	46	47	48
LANA-H2B inh	-1.5	15	-0.1	-3.2	4.4	-3.5	2.0	3.4
B2AR ag	-4	-9	9	4	1	5	-11	-12
UCH37 DUB inh	2.8	.	0.3	3.2	3.1	2.4	4.3	-0.7
A1 inh	0.4	-0.3	0.3	-1.4	-0.3	-0.5	0.1	0.7
Beta cell apopt	-11	106*	105*	-1	5	1	2	0
T cruzi inh	13	53	23	-10	2	16	-9	4
Calb FLC	-9	95*	-5	6	2	7	-3	95*
RanGTP-Impb inh	-2.6	4.0	.	-12	-1.4	-0.1	0.2	-0.8

49: O=C(CN1CCN(c2ccc([N+](=O)[O-])cc2)CC1)c1ccccc1
50: C(#Cc1ccc2c(c1)COc1c3ccccc3nn1-2)c1ccccc1
51: O=C(CSc1nnc2ccccn12)Nc1ccc(N2CCOCC2)cc1
52: COc1ccc(S(=O)(=O)N(C)CC(=O)Nc2ccccc2SC)cc1
53: Cc1ccsc1/C=N/n1c(C2CCCCC2)n[nH]c1=S
54: O=C(c1ccco1)N1c2ccccc2Sc2ccccc21
55: NC(=O)C1CCN(C(=O)COc2ccc(Nc3ccccc3)cc2)CC1
56: O=C(O)Cn1cnc2c(OCc3ccccc3)ncnc21
57: Cc1ccc(C(=O)COC(=O)CN2C(=O)C3C4C=CC(C4)C3C2=O)cc1[N+](=O)[O-] (stereo unspecified)
assay / entry	49	50	51	52	53	54	55	56	57
LANA-H2B inh	0.6	-4.5	-4.1	-2.9	3.5	-1.4	-1.4	-3.3	0.9
B2AR ag	0	7	3	-5	2	-7	4	-3	-1
UCH37 DUB inh	7.7	0.0	-0.4	-1.7	.	3.6	2.8	0.7	3.1
A1 inh	0.1	-3.3	-0.8	0.6	0.1	-0.2	0.7	0.0	0.1
Beta cell apopt	.	-4	5	0	6	-4	11	-5	-1
T cruzi inh	4	-5	.	-4	-4	34	-9	.	-1
Calb FLC	7	17	.	2	16	19	1	.	5
RanGTP-Impb inh	1.9	-2.7	.	5.6	-5.3	3.1	6.3	.	2.4

Three structures out of the list, arranged by length of the SMILES, high to low.
49: O=C(CN1CCN(c2ccc([N+](=O)[O-])cc2)CC1)c1ccccc1
55: NC(=O)C1CCN(C(=O)COc2ccc(Nc3ccccc3)cc2)CC1
56: O=C(O)Cn1cnc2c(OCc3ccccc3)ncnc21
assay / entry	49	55	56
LANA-H2B inh	0.6	-1.4	-3.3
B2AR ag	0	4	-3
UCH37 DUB inh	7.7	2.8	0.7
A1 inh	0.1	0.7	0.0
Beta cell apopt	.	11	-5
T cruzi inh	4	-9	.
Calb FLC	7	1	.
RanGTP-Impb inh	1.9	6.3	.
